NPYLR7 agonist = agonists of mosquito NPYLR7 receptor, primary screen, cell-based, Aedes aegypti, calcium fluorescence, mosquito biting behavior. AID 1259423, 2018. activation, % at 10 µM. hit rate 0.15% among 270,000. HEK293T NPYLR7/Galpha15, GCaMP6s calcium fluorescence. Aedes aegypti neuropeptide Y-like receptor 7 (NPYLR7); in the data active means activation above about 40%;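 further: 0% = vehicle and 100% = reference agonist at the receptor; some compounds past the cut are filed as inactive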
NPYLR7 agonist max-min = also measured in NPYLR7 agonist; calls as there; activation, %; measured here: Max-Min RFU normalised activation; some inactives read as strong as hits;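 span of the calcium signal over five minutes; 0% = vehicle and 100% = native peptide agonist; compound fluorescence can raise it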
* = called active by the depositor; & = joins results of further samples. Only part of the results is shown; the hit share may differ from the screen's.

SMILES	NPYLR7 agonist	NPYLR7 agonist max-min
COCCN(Cc1cnn(C)c1)C(=O)c1c(C)nn(-c2ccc(F)cc2)c1C	-9	-9
COc1ccc(-c2ccccc2)cc1NCC1CC2C=CC1C2 (configuration not stated)	-16	-22
Nc1nonc1-c1noc(-c2c(F)cccc2F)n1	1	-4
CCc1nc(-c2nccn2CCc2cccc(OC)c2)c(C)[nH]1	2	2
CC(C(=O)c1ccc(-c2ccccc2)cc1)[n+]1cccc(C(N)=O)c1 (configuration not stated)	-11	-19
COc1c(Br)cc(Br)cc1/C=C1\NC(=S)NC1=O	-10	-3
CCc1c(C(=O)NC(C)CC#N)cnn1-c1ccccc1 (configuration not stated)	9	3
CC(C)(C)OC(=O)NCC1CCN(c2ccccn2)CC1	7	4
CN(Cc1cc2ccccc2s1)C(=O)c1cn(CC2COc3ccccc3O2)nn1 (configuration not stated)	7	2
O=[N+]([O-])c1ccc2c(c1)S(=O)(=O)N=C2Nc1cccc(Cl)c1	-11	-18
COc1ccc2cc(C(=O)C3CCCN(Cc4cccc(C)n4)C3)ccc2c1 (configuration not stated)	-4	-5
COC(=O)c1ccc(CN2CCCC(C(=O)c3ccccc3SC)C2)cc1 (configuration not stated)	-12	-14
CCN(CC)CCOc1cc(NC(=O)C2=NN(C)C(=O)CC2)ccc1OC	-4	-5
Cc1ccc2c(c1)SC(C(=O)N(Cc1ccc(O)cc1)C1CC1)C2 (configuration not stated)	-3	-5
CC(C)Cc1cn([C@@H]2CN[C@H](C(=O)O)C2)nn1	5	3
Cc1oc(-c2ccccc2)nc1CSc1nc(-c2cccnc2)cc(=O)[nH]1	-1	-4
CCc1c(C)nn(-c2ccc(C(=O)NCCc3cccs3)cc2)c1C	-7	-11
COc1cccc(-n2nc(C(=O)NCc3ccccn3)c(=O)n(Cc3ccccc3Cl)c2=O)c1	4	9
O=C(O)c1cccc([N+](=O)[O-])c1C(=O)NC1=NCCS1	-18	-20
CCN(CC)S(=O)(=O)c1ccc2c(c1)nc(SCC#N)n2C(C)C	3	-2
CC(Oc1ccccc1Cl)C(=O)N1CCOC(COCc2ccccc2F)C1 (configuration not stated)	27	32
CCN(Cc1csc(COc2cc(C)cc(C)c2C)n1)C(=O)c1ccc(OC)cc1	16	12
CCN(CC)S(=O)(=O)c1ccc(OC)c(N2CCN(C(=O)c3c(Cl)cccc3Cl)CC2)c1	26	19
CCC(=O)Nc1cccc(C(=O)N(C)C(C)Cc2ccccc2OC)c1 (configuration not stated)	-2	-9
O=C(Nc1ccc(F)cc1F)C(C1CCCC1)N1CCN(C(=O)c2ccccc2Cl)CC1 (configuration not stated)	6	4

2 compounds picked at random from the list so far, as already listed:
SMILES	NPYLR7 agonist	NPYLR7 agonist max-min
CCc1nc(-c2nccn2CCc2cccc(OC)c2)c(C)[nH]1	2	2
COCCN(Cc1cnn(C)c1)C(=O)c1c(C)nn(-c2ccc(F)cc2)c1C	-9	-9

Of the compounds above, 8 have a halogen:
SMILES	NPYLR7 agonist	NPYLR7 agonist max-min
COCCN(Cc1cnn(C)c1)C(=O)c1c(C)nn(-c2ccc(F)cc2)c1C	-9	-9
Nc1nonc1-c1noc(-c2c(F)cccc2F)n1	1	-4
COc1c(Br)cc(Br)cc1/C=C1\NC(=S)NC1=O	-10	-3
O=[N+]([O-])c1ccc2c(c1)S(=O)(=O)N=C2Nc1cccc(Cl)c1	-11	-18
COc1cccc(-n2nc(C(=O)NCc3ccccn3)c(=O)n(Cc3ccccc3Cl)c2=O)c1	4	9
CC(Oc1ccccc1Cl)C(=O)N1CCOC(COCc2ccccc2F)C1 (configuration not stated)	27	32
CCN(CC)S(=O)(=O)c1ccc(OC)c(N2CCN(C(=O)c3c(Cl)cccc3Cl)CC2)c1	26	19
O=C(Nc1ccc(F)cc1F)C(C1CCCC1)N1CCN(C(=O)c2ccccc2Cl)CC1 (configuration not stated)	6	4

Further compounds:
SMILES	NPYLR7 agonist	NPYLR7 agonist max-min
CCCN(CCC)C(=O)c1cc(-c2cccc(OC)c2)nc2cc(C(C)(C)C)nn12	8	6
O=C(Nc1ccc(N2CCc3sccc3C2)nc1)C1CCCO1 (configuration not stated)	6	1
CC(=O)c1ccc2c(c1)N(Cc1ccccc1)C(=O)C(C)S2 (configuration not stated)	6	4
Cn1c(-c2ccco2)nnc1S(=O)(=O)CCCCC#N	-4	-6
CC(C)C(c1nnnn1C1CCCCC1)N1CCCCC1 (configuration not stated)	2	-2
CCC(C(=O)NC(C)C)n1nc(C)n2c(cc3sccc32)c1=O (configuration not stated)	-1	-1
CCOC(=O)CNc1c(-c2ccccc2Cl)nc2ccc(Cl)cn12	0	7
Cc1cc(C)cc(OCCCN(C)C(=O)c2nn(C)c(=O)c3ccccc23)c1	5	-5
Cc1ccccc1CC(=O)NC1CCc2[nH]c3c(C)c(C)ccc3c2C1 (configuration not stated)	29	16
O=C(CSc1ccccc1)NC1CC(=O)N(CCc2ccccc2)C1 (configuration not stated)	14	4
O=C(CCc1cc2c(n1-c1ccc3c(c1)OCO3)-c1ccccc1CC2)NCCOc1ccccc1	23	8
CCn1cc(C(CC(=O)NCCc2ccccn2)c2cc(OC)cc(OC)c2)c2ccccc21 (configuration not stated)	1	9
CCNc1nc(Cl)nc(NCCN2CCOCC2)n1	9	3
CCOC(=O)C1C(=O)C=C(c2ccc(OC)c(OC)c2)CC1c1cccc(F)c1 (configuration not stated)	13	15
CCOC(=O)c1sc(NC(=O)CC)nc1-c1ccccc1	-5	-13
COc1ccccc1C(=O)N(CC(=O)N1CCc2sccc2C1c1ccc(Cl)cc1Cl)Cc1ccc(F)cc1 (configuration not stated)	21	21
COc1cccc2c1OCC(C(=O)N(C)Cc1ccno1)C2 (configuration not stated)	0	11
OC(CNc1ncccn1)c1ccccc1 (configuration not stated)	-6	-16
COc1nc(-c2ccc(C)cc2)n(-c2ccc(NC(=O)C3CCC3)cc2)n1	12	15
CCCCCN(CC(=O)Nc1cc(C(C)(C)C)nn1-c1ccccc1Cl)C(=O)c1cc(C(F)(F)F)cc(C(F)(F)F)c1	16	26
Cc1c(C)n2c3c(=O)n(CC(C)C)c(=O)n(C)c3nc2n1C	3	1
O=C(Nc1cccc(C(F)(F)F)c1)C1CC=CCC1C(=O)N1CCN(c2ccccn2)CC1 (configuration not stated)	-11	-15
O=C(Cc1cccc2ccccc12)N1CCN(c2ncnc3c2nnn3-c2ccccc2)CC1	-7	-18
CC(C)Cn1c(N)c(C(=O)CSc2nnc(C3CC3)n2C2CC2)c(=O)n(C)c1=O	10	14
Nc1nnc(SCC(=O)Nc2nc3ccccc3s2)s1	-2	-3

Later entries:
SMILES	NPYLR7 agonist	NPYLR7 agonist max-min
CC1CCC2(CC1)OCC(C(=O)NCc1cccnc1)N2C(=O)c1ccccc1C(F)(F)F (configuration not stated)	1	3
CC1=C(C(C)C2NCC(C)CC2O)CCC2C3=C(C(=O)C12)C1(C)CCC(O)CC1=CC3 (configuration not stated)	8	7
Cc1ccc2oc(=O)n(CCC(=O)N3CCN4CCNC(=O)C4C3)c2c1 (configuration not stated)	-1	12
COc1cc(-c2nc(C(C)=O)c(C)n2O)cc(OC)c1OC	0	-1
COc1ccc(COC(=O)C2=C(C)NC(=O)NC2c2ccc(OC)cc2)cc1 (configuration not stated)	-3	-7
COc1ccc(CNC(=O)c2cnn3c(C(F)(F)F)cc(-c4ccco4)nc23)cc1	-5	-8
Cc1ccc(/C=C2/NC(=S)NC2=O)c(C)c1	3	1
COc1ccc2[nH]c(CN3CCN(CCC(C)C)C(CCO)C3)c(C)c2c1 (configuration not stated)	15	6
Cc1ccc(S(=O)(=O)N2CCN(c3nc(-c4ccccc4)nc4ccccc34)CC2)cc1	-21	-14
CC1C(=O)N(c2ccc(Cl)cc2Cl)CCN1C(=O)c1ccc(F)cc1 (configuration not stated)	1	7
CCN(Cc1ccccc1)C(=O)c1cccc(C)c1O	5	2
O=C(c1ccc(C2CCCO2)s1)N1C[C@@H]2[C@H](C1)[C@H]1CC[C@@H]2O1 (some centres not stated)	18	6
Cc1cc(NCc2c(F)cccc2Cl)ccc1N1CCCC1=O	8	5
Cc1cc(=O)c(C(=O)Nc2ccc(Cl)cn2)nn1-c1ccccc1F	2	4
O=C(NCCSC1Sc2ccccc2NC1=O)NCCc1ccccc1 (configuration not stated)	3	-4
CC(=O)N1CCN(C(=O)c2csc(COc3cccc(C(F)(F)F)c3)n2)CC1	10	17
CC1(C)CNC(=O)CN(C(=O)CCc2ccccc2)C1	2	10
CC(C)Cn1cncc1CN1CC(C(=O)O)CC1=O (configuration not stated)	2	0
CN(Cc1ccco1)C(=O)/C=C/c1ccc(N2CCCCCC2)cc1	1	0
COc1cccc(NC(=O)CSc2nnc3[nH]c(=O)c(Cc4ccc(C)cc4)nn23)c1	1	0
CC(N)CN(C)c1ccccc1 (configuration not stated)	-2	-3
CCCn1nnnc1NCc1ccccc1OCc1cccs1	0	-2
CN(C)c1cccc2c(S(=O)(=O)Nc3nccnc3N3CCN(C(=O)c4ccccc4)CC3)cccc12	-2	-6
COc1cc(CNCC(C)C)c(Br)cc1OCC(=O)NCc1ccccc1	-9	-11
O=C(c1cccc(Cl)c1)C1CCCN(S(=O)(=O)c2ccsc2)C1 (configuration not stated)	16&0	3&-2

(list continues)
SMILES	NPYLR7 agonist	NPYLR7 agonist max-min
O=C(NCC1CCCN(C(=O)c2cc[n+]([O-])cc2)C1)c1ccc(-c2ccccc2)cc1 (configuration not stated)	-3	-8
C=CCN(CC(=O)N1CCc2sccc2C1COc1ccc(F)cc1)C(=O)c1ccccc1F (configuration not stated)	-3	-1
CN(C)C(CNc1ncccc1C#N)c1cccc(F)c1 (configuration not stated)	-3	-4
CC(CS(C)(=O)=O)NC(=O)c1cc(Br)c[nH]1 (configuration not stated)	16	16
CC1CCC2(CC1)NC(=O)N(CN1CCc3sccc3C1c1cccs1)C2=O (configuration not stated)	2	8
CC(C)C(NC(=O)Cc1csc(NS(C)(=O)=O)n1)c1ccc(Cl)cc1 (configuration not stated)	-4	-5
C/C(=N/OC(=O)c1ccc(OC(C)C)cc1)c1ccc(C)c(C)c1	-5	-5
COc1cc(-c2nccn2CCCn2nc(C)nc2C)ccc1O	20	16
O=C(NCc1cccs1)c1cccnc1N1CCN(C(=O)c2ccc(-c3cccc(Cl)c3)s2)CC1	-1	-5
COc1ccc(C2=NC(=Cc3ccc(Cl)s3)C(=O)O2)cc1	2	9
COc1ccc2nc(SCc3ccc(C(=O)N4C5CCC4CC(Oc4ccccc4C(C)C)C5)cc3)[nH]c2c1 (configuration not stated)	9	1
CC1=Nc2c(c(C)nn2-c2ccccc2)C(C(F)(F)F)(C(F)(F)F)O1	-5&9	-8&3
Cc1ccccc1OCC(=O)N1CCN(c2ncnc3c2nnn3-c2ccccc2)CC1	-9	-19
Nc1ccc(-c2nc3ccc(N)cc3o2)cc1	5	4
COc1ccc(Nc2ccc(S(=O)(=O)C(F)(F)F)cc2[N+](=O)[O-])c(OC)c1	9	6
O=C(c1ccnc(Cl)c1)N1CCC(n2c(=O)oc3ccc(Cl)cc32)CC1	-11	-2
Cc1cccc(CN2CCN(Cc3ccc(N(C)C)nc3)CC2)c1	4	1
O=C(CSc1nnc(-c2ccco2)o1)N1CCN(C(=O)c2cccs2)CC1	-4	-3
COc1cccc(Cn2cccc2CN(C(=O)CN(CC(C)C)C(=O)c2cccc(OC)c2)C(C)(C)C)c1	-6	-6
CC(C)n1c2c(=O)n(C)c(=O)n(C)c2n2c(-c3ccccc3Cl)nnc12	7	2
CCN1CCN(C2CCN(CCC(=O)NC(C)C)C2)CC1 (configuration not stated)	4	3
Cn1cccc1C(CNC(=O)Cc1cccs1)N1CCc2ccccc2C1 (configuration not stated)	-2	-1
COc1ccc(OC)c(CN(Cc2ccc(F)cc2)Cc2nc(C(=O)NCCN3CCOCC3)co2)c1	-8	21
FC(F)(F)c1cc(CNc2c3c(nc4ncnn24)CCCC3)cc(C(F)(F)F)c1	25	12
CCOC(=O)c1ccc(Oc2nc(NC)nc(NC(C)(C)C)n2)cc1	2	1

Single values from the list.
Value of COc1cc(-c2nccn2CCCn2nc(C)nc2C)ccc1O under NPYLR7 agonist: 20
Value of CC1CCC2(CC1)NC(=O)N(CN1CCc3sccc3C1c1cccs1)C2=O (configuration not stated) under NPYLR7 agonist: 2
Value of CCN1CCN(C2CCN(CCC(=O)NC(C)C)C2)CC1 (configuration not stated) under NPYLR7 agonist max-min: 3
Value of COc1cccc(Cn2cccc2CN(C(=O)CN(CC(C)C)C(=O)c2cccc(OC)c2)C(C)(C)C)c1 under NPYLR7 agonist: -6

New compounds follow.
SMILES	NPYLR7 agonist	NPYLR7 agonist max-min
CS(=O)(=O)NCC1CN(c2ccccc2)C(=O)O1 (configuration not stated)	3	6
Nc1ccnc(N2CCC(CO)(CCOc3ccccc3)CC2)n1	2	1
CN1CCCCC1(C)C(=O)NCc1ccc(F)cc1Cl (configuration not stated)	5	3
COc1ccc(S(=O)(=O)N2CCCOC2CNC(=O)C(=O)NCc2ccccc2F)cc1OC (configuration not stated)	-5	-5
Cc1ccc(C2c3ccccc3CCN2C(=O)c2cccc(F)c2)cc1 (configuration not stated)	23	15
O=C(O)c1cc(-c2ccccc2O)n[nH]1	-3	-5
O=C(CSc1nnc(-c2cccs2)n1C1CC1)NN1C(=O)NC2(CCCCC2)C1=O	4	3
O=C(NCc1cn2ccccc2n1)c1cccc(CC2CCNCC2)c1	2	-5
COC(=O)c1ccc(N2C(=O)CC(N3CCOCC3)C2=O)cc1 (configuration not stated)	-2	-5
Cc1sc2nc(-c3cccs3)nc(N3CCOCC3)c2c1C	7	6
Fc1ccc(F)c(C2c3cccn3CCCN2Cc2ccsc2)c1 (configuration not stated)	1	12
